# HCMV NEC inh – cytomegalovirus nuclear egress complex inhibition. inhibition, % (concentration not given with the values). AID 1918969. HTRF UL50-UL53 interaction, normalized percent inhibition. actives 0.15% (n = 190,000);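 active = both replicates at 50% or more, plus weaker picks with an unusually low signal ratio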;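 note: stock transfer was 100 nL into about 20 µL; 0% = negative control wells and 100% = wells with untagged competitor protein; inactives centre near -12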
# GIV Gai3 FP – blocks GIV peptide binding to rat Galpha-i3. P08753. Galpha-i3/FITC-GIV peptide fluorescence polarization, 90 min; hits give low values; scaled: aluminum fluoride 0%, vehicle 100%. percent of control (FP), % (no concentration beside the values). actives 0.42% (n = 210,000). AID 1224905;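 active = replicate mean at 85% of control or lower, very high polarization wells dropped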;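 note: wells of about 15 µL received 100 nL stock; the first replicate is given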
# Target sequence (P08753 whole entry, looked up): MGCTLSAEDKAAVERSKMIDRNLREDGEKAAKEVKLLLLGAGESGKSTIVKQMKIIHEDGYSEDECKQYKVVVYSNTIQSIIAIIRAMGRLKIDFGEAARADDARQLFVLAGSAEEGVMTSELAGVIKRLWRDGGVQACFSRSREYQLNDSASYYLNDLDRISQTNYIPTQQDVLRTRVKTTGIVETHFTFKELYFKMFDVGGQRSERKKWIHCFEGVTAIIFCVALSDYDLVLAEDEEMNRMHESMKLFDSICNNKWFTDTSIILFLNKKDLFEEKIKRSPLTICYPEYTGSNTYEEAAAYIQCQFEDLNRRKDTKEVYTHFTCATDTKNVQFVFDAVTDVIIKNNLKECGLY
# Sa growth inh – inhibitors of Staphylococcus aureus growth at 42 °C; S. aureus RN4220 growth, OD600, 20 h; hits give low values; relative growth, % (test concentration not listed); actives 0.53% (n = 170,000);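 active = growth at 42 °C up to 50% and 20 or more points under that at 30 °C, or under 10% at both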;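 note: 300 nL library stock went into each well; scaled to the means of positive and negative controls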
# Sa growth inh second temp – also measured in Sa growth inh; calls as there; relative growth, %; measured here: growth at 30 °C;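 optical density after 20 h as mean of two plates; 100% = untreated growth and lower means inhibition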
# * = called active by the depositor; / = no result given.
# Keys: A = HCMV NEC inh; B = GIV Gai3 FP; C = Sa growth inh; D = Sa growth inh second temp
SMILES: O=C(c1cc2c(=O)oc3ccccc3c2s1)N1CCN(c2ccccc2)CC1
  A: 16	B: 101	C: 98	D: 103
SMILES: O=C(O)CCC(=O)N1CCC(Oc2nnnc3ccccc23)CC1
  A: -44	B: 99	C: 90	D: 90
SMILES: COc1ccc(CCNc2c[nH]c(=O)[nH]c2=O)cc1OC
  A: -34	B: 105	C: 87	D: 82
SMILES: N#CCCn1c(SCC(=O)NCC23CC4CC(CC(C4)C2)C3)nc2ccccc21
  A: -5	B: /	C: 97	D: 87
SMILES: CSc1scc(NS(=O)(=O)c2ccc(Cl)cc2)c1S(=O)(=O)C(C)C
  A: -15	B: 104	C: 75	D: 54
SMILES: COc1cccc(NC(=O)Cn2c(=O)n(CC(=O)NCCc3ccccc3)c(=O)c3sccc32)c1
  A: 0	B: 106	C: 106	D: 93
SMILES: COc1ccc(NC(=O)CN2C(=O)COc3ccc(S(=O)(=O)N4CCOCC4)cc32)cc1Cl
  A: /	B: 104	C: 103	D: 73
SMILES: C[N+]1(CCn2ccc3ccccc32)CCCCC1
  A: /	B: 95	C: 94	D: 90
SMILES: Cc1ccc2nc(N3CCN(c4cccc(Cl)c4)CC3)c(-n3nc(C)cc3C)nc2c1
  A: 2	B: 109	C: 102	D: 100
SMILES: Cc1ccc2nc(Cl)c3cc(C(=O)NC(C)CCc4ccco4)sc3c2c1 (stereo not drawn)
  A: /	B: 110	C: 107	D: 93

# Next section.
# Keys: A = HCMV NEC inh; B = GIV Gai3 FP; C = Sa growth inh; D = Sa growth inh second temp
SMILES: CCOC(=O)c1c(CN2CCC(C)CC2)oc2ccc(OC)cc12
  A: 12	B: 107	C: 99	D: 93
SMILES: COc1ccc(-n2c3nc4ccccc4nc3c3c(=N)oc(C)nc32)cc1
  A: 60	B: /	C: 94	D: 97
SMILES: COc1ccc(NC(=O)N(C)CCc2noc(C3CCCCC3)n2)cc1
  A: -4	B: 110	C: /	D: /
SMILES: COc1cc(NC(=O)CCc2nc3cccnc3n2Cc2cccs2)cc(OC)c1OC
  A: -10	B: 118	C: 104	D: 85
SMILES: COc1ccc(NC(=O)N(C(C)C)C2CCN(C(C)=O)CC2)c(OC)c1
  A: /	B: 101	C: 118	D: 89
SMILES: Clc1ccc(-c2noc3ncnc(N4CCN(Cc5ccccc5)CC4)c23)cc1
  A: -27	B: 97	C: /	D: /
SMILES: COc1ccc(NC(=S)Nc2ccn(C)n2)c(OC)c1
  A: -8	B: 99	C: 104	D: 104
SMILES: O=C(O)c1nn(CCO)c(=O)c2ccccc12
  A: -16	B: /	C: 82	D: 92
SMILES: O=C(COc1ccc(F)cc1)N1CC(OCc2ccc(F)cc2Cl)C1
  A: -28	B: 97	C: /	D: /
SMILES: Cc1ccc(NC(=O)CCNS(=O)(=O)c2cccc3nonc23)cc1Cl
  A: -77	B: 100	C: 125	D: 81

# (list continues)
# Keys: A = HCMV NEC inh; B = GIV Gai3 FP; C = Sa growth inh; D = Sa growth inh second temp
SMILES: CC(C)(C)c1ccc(NC(=O)COC(=O)Cc2ccsc2)cc1
  A: -23	B: /	C: 97	D: 90
SMILES: CC(C)S(=O)(=O)c1csc(NC(=O)N2CCCCC2)c1Cl
  A: -37	B: 105	C: 96	D: 89
SMILES: O=C(/C=C/c1ccc(Br)o1)OCc1cc(=O)oc2cc3c(cc12)CCC3
  A: -12	B: /	C: 93	D: 89
SMILES: COc1cc(OC)cc(-c2nc3nc(C)c(CCC(=O)Nc4cc(C)cc(C)c4)c(C)n3n2)c1
  A: 6	B: 106	C: 94	D: 96
SMILES: Cc1ccc(NCC(=O)O)cc1
  A: -44	B: /	C: 91	D: 80
SMILES: COCC(C)NC(=O)c1cccc(OC)c1 (stereo not drawn)
  A: -4	B: /	C: 109	D: 89
SMILES: CCC(=O)NC1CCC(c2ccccc2)CC1 (stereo not drawn)
  A: -23	B: 101	C: 116	D: 97
SMILES: Cc1oc2ncn(CC(C)C)c(=O)c2c1C(=O)N1CCN(c2ccccc2F)CC1
  A: /	B: 105	C: 94	D: 89
SMILES: COc1ccc(CNc2nc(-c3ccccc3)nn2C(=O)c2ccccc2OC)cc1
  A: 10	B: 108	C: 97	D: 96
SMILES: CSc1ncc2c(=O)n(Cc3ccccc3)ccc2n1
  A: 25	B: 119	C: 85	D: 89

# Additional structures.
# Keys: A = HCMV NEC inh; B = GIV Gai3 FP; C = Sa growth inh; D = Sa growth inh second temp
SMILES: O=C(Nc1ccccn1)c1ccccc1O
  A: -10	B: 100	C: 94	D: 89
SMILES: CC1(C)CC(=O)C2=C(C1)N(Cc1ccccc1)CN(Cc1ccco1)C2
  A: -26	B: 107	C: 95	D: 82
SMILES: CC1C2CC(CC2=NNC(=O)c2cccs2)C1(C)C (stereo not drawn)
  A: 7	B: 103	C: 71	D: 42
SMILES: Cc1nn(C(C)(C)C)c(C)c1/C=N/OC(=O)c1cccs1
  A: -7	B: 110	C: 93	D: 97
SMILES: Cn1c(=O)[nH]c(=O)c2c1nc(NCc1ccccc1)n2CC(O)COc1cccc2ccccc12 (stereo not drawn)
  A: -15	B: 99	C: /	D: /
SMILES: CCCCN1C(=O)/C(=C2\SC(=Nc3ccc(Cl)cc3)N(C)C2=O)c2ccccc21
  A: /	B: 105	C: 105	D: 85
SMILES: O=C(NCCCN1CCCCC1)C1CC(=O)N(C2CCCCC2)C1 (stereo not drawn)
  A: 3	B: 98	C: 116	D: 81
SMILES: CC1CCC(N2CC(=O)N(CCC3=CCCCC3)C(c3ccc(F)cc3)C2=O)CC1 (stereo not drawn)
  A: /	B: 105	C: 88	D: 91
SMILES: CC1=C(c2ccc(C)cc2)S(=O)(=O)NC1=NC1CCCC(C)C1C (stereo not drawn)
  A: /	B: 104	C: 100	D: 87
SMILES: COc1ccc(-n2nc(C(=O)NCCCOC(C)C)c3c4ccccc4n(C)c3c2=O)cc1
  A: -29	B: 104	C: 99	D: 86

# (list continues)
# Keys: A = HCMV NEC inh; B = GIV Gai3 FP; C = Sa growth inh; D = Sa growth inh second temp
SMILES: O=C(C1CCCN(c2ccc(Sc3ccc(Br)cc3)nn2)C1)N1CCSCC1 (stereo not drawn)
  A: -48	B: 97	C: /	D: /
SMILES: O=C1CC(c2ccc(Br)cc2)C2=C(CCCC2=O)N1 (stereo not drawn)
  A: -4	B: 108	C: 97	D: 96
SMILES: CN(C)c1nc(-c2ccccc2)c(CC(=O)O)s1
  A: -8	B: /	C: 110	D: 96
SMILES: O=C(Nc1cccc(C(=O)NCC2CCCO2)c1)C1=CSCCO1 (stereo not drawn)
  A: -30	B: 101	C: /	D: /
SMILES: Cc1ccc(SCC(=O)Nc2ccc(O)c(-c3nc4cc(C)ccc4o3)c2)cc1
  A: -18	B: 103	C: 99	D: 82
SMILES: Cc1cc(NC(=O)CCN2C(=O)/C(=C/c3ccc(Cl)cc3)SC2=S)no1
  A: 16	B: 105	C: /	D: /
SMILES: CCOC(=O)c1ccc(CN(Cc2ccc(F)cc2)S(=O)(=O)c2cc(C(=O)Nc3cccc(C(F)(F)F)c3)ccc2F)cc1
  A: /	B: 104	C: 115	D: 69
SMILES: Cc1cc(C)n2nc(C(=O)N(C/C=C/c3ccccc3)c3ccc4c(c3)OCCO4)nc2n1
  A: 2	B: /	C: 89	D: 96
SMILES: O=C(CSc1nnc(-c2ccc(Cl)s2)o1)N1CCCc2ccccc21
  A: 8	B: 106	C: 99	D: 84
SMILES: CC(C)Nc1nc2c(S(=O)(=O)c3cccc(Cl)c3)nnn2c2ccsc12
  A: /	B: 101	C: 112	D: 91

# In a second layout: entries from further up
# Below each SMILES: HCMV NEC inh | GIV Gai3 FP | Sa growth inh | Sa growth inh second temp
CC1=C(c2ccc(C)cc2)S(=O)(=O)NC1=NC1CCCC(C)C1C (stereo not drawn)
 : / | 104 | 100 | 87
COc1ccc(-n2nc(C(=O)NCCCOC(C)C)c3c4ccccc4n(C)c3c2=O)cc1
 : -29 | 104 | 99 | 86
O=C(C1CCCN(c2ccc(Sc3ccc(Br)cc3)nn2)C1)N1CCSCC1 (stereo not drawn)
 : -48 | 97 | / | /
O=C1CC(c2ccc(Br)cc2)C2=C(CCCC2=O)N1 (stereo not drawn)
 : -4 | 108 | 97 | 96
CN(C)c1nc(-c2ccccc2)c(CC(=O)O)s1
 : -8 | / | 110 | 96
O=C(Nc1cccc(C(=O)NCC2CCCO2)c1)C1=CSCCO1 (stereo not drawn)
 : -30 | 101 | / | /
Cc1ccc(SCC(=O)Nc2ccc(O)c(-c3nc4cc(C)ccc4o3)c2)cc1
 : -18 | 103 | 99 | 82
Cc1cc(NC(=O)CCN2C(=O)/C(=C/c3ccc(Cl)cc3)SC2=S)no1
 : 16 | 105 | / | /
CCOC(=O)c1ccc(CN(Cc2ccc(F)cc2)S(=O)(=O)c2cc(C(=O)Nc3cccc(C(F)(F)F)c3)ccc2F)cc1
 : / | 104 | 115 | 69
Cc1cc(C)n2nc(C(=O)N(C/C=C/c3ccccc3)c3ccc4c(c3)OCCO4)nc2n1
 : 2 | / | 89 | 96
O=C(CSc1nnc(-c2ccc(Cl)s2)o1)N1CCCc2ccccc21
 : 8 | 106 | 99 | 84
CC(C)Nc1nc2c(S(=O)(=O)c3cccc(Cl)c3)nnn2c2ccsc12
 : / | 101 | 112 | 91

# New compounds follow:
# Keys: A = HCMV NEC inh; B = GIV Gai3 FP; C = Sa growth inh; D = Sa growth inh second temp
SMILES: O=C(Nc1cccc(F)c1)C1CCN(c2nc3ccccc3[nH]2)CC1
  A: /	B: 102	C: 101	D: 81
SMILES: O=C(NCCc1ccsc1)c1cnn2ccccc12
  A: /	B: 99	C: 78	D: 85
SMILES: CCOc1ccc(C2Nn3c(nnc3-c3ccccc3)SC2C(=O)N2C(C)CCCC2C)cc1 (stereo not drawn)
  A: /	B: 109	C: 95	D: 78
SMILES: NS(=O)(=O)c1ccc(NC(=O)C2CCCO2)cc1 (stereo not drawn)
  A: 3	B: 108	C: 100	D: 93
SMILES: CC(=O)Oc1cccc2ccc(=O)[nH]c12
  A: -12	B: /	C: 89	D: 92
SMILES: Cc1ccc2[nH]c3c(c2c1)CCC/C3=N/O
  A: -17	B: 105	C: 37	D: 20
SMILES: COc1ccc(Oc2cc3c(cc2NS(=O)(=O)c2cccc4nsnc24)n(C)c(=O)n3C)cc1
  A: -20	B: 111	C: /	D: /
SMILES: CCN(c1ccccc1)S(=O)(=O)c1cc(Br)cc2c1N(C(=O)C1CC1)CC2
  A: -4	B: 103	C: 101	D: 92
SMILES: CC1CCCCN1c1nnc(NC(=O)Nc2ccccc2C(F)(F)F)s1 (stereo not drawn)
  A: /	B: 106	C: 92	D: 93
SMILES: Cc1nc(-c2ccccc2)sc1C(=O)NCc1ccco1
  A: -67	B: 104	C: 88	D: 86

# (continued)
# Keys: A = HCMV NEC inh; B = GIV Gai3 FP; C = Sa growth inh; D = Sa growth inh second temp
SMILES: O=S(=O)(Nc1ccc(S(=O)(=O)Nc2ncccn2)cc1)c1ccccc1
  A: -10	B: 101	C: 83	D: 86
SMILES: Cc1nc2nc(NC(=O)c3ccc(Cl)cc3)[nH]n2c(=O)c1Cc1ccccc1
  A: -9	B: 99	C: 97	D: 92
SMILES: CCOC(=O)c1oc2ccccc2c1COC(=O)C12CCC(=O)N1c1ccccc1S2 (stereo not drawn)
  A: -26	B: /	C: 82	D: 88
SMILES: CCC(Sc1nc2ncccc2[nH]1)C(=O)N1CCCCCC1 (stereo not drawn)
  A: -15	B: 100	C: 94	D: 86
SMILES: CCc1ccc(N2C(N)=C(C#N)C3(C(=O)Nc4ccccc43)C3=C2CCCC3=O)cc1 (stereo not drawn)
  A: -9	B: 98	C: 95	D: 74
SMILES: Cc1cc(=O)n2c(n1)NC(Nc1ccc(C(C)C)cc1)=NC2c1ccccc1 (stereo not drawn)
  A: 0	B: 113	C: 112	D: 98
SMILES: O=C(c1cc2c(=O)oc3ccccc3c2s1)N1CCN(c2cccc(Cl)c2)CC1
  A: 13	B: 102	C: 93	D: 98
SMILES: CC(C)CC(NC(=O)Nc1cccc2ccccc12)C(=O)O (stereo not drawn)
  A: -16	B: 109	C: 95	D: 100
SMILES: CCn1nc(C)c(NC(=S)NCC2CCCO2)c1C (stereo not drawn)
  A: -10	B: 106	C: 105	D: 90
SMILES: N#CCC(=O)c1ccc(N)cc1
  A: -3	B: 98	C: 99	D: 85

# Next compounds.
# Keys: A = HCMV NEC inh; B = GIV Gai3 FP; C = Sa growth inh; D = Sa growth inh second temp
SMILES: Cc1nn(C2CCS(=O)(=O)C2)c(Cl)c1CNCC(=O)Nc1ccc(F)c(F)c1 (stereo not drawn)
  A: -7	B: /	C: 109	D: 88
SMILES: COc1cccc(Nc2nc3c(S(=O)(=O)c4cc(C)ccc4C)nnn3c3ccsc23)c1
  A: /	B: 100	C: 85	D: 73
SMILES: CCOC(=O)c1scc(-c2ccccc2)c1S(=O)(=O)Nc1cc(Cl)c(OC)cc1OC
  A: /	B: 101	C: 111	D: 92
SMILES: CCOc1ccc(NC(=O)CN2CCN(S(=O)(=O)c3ccc(OC)cc3)CC2)cc1
  A: /	B: 105	C: 93	D: 96
SMILES: COc1ccccc1CCNC(=O)C(=O)NCC(c1cccs1)S(=O)(=O)c1ccc(C)cc1 (stereo not drawn)
  A: /	B: 98	C: 109	D: 89

# Screens as filed in PubChem.
